# Screening data: PubChem, National Center for Advancing Translational Sciences (NCATS)
# 2A StopGo = lowers the luciferase signal of an FMDV 2A StopGo reporter | 410,000 tested, 1.2% active | Potency, µM (highest dose often 57.9 µM), without a hit: top-dose signal change, negative = less light | human cells with a luciferase reporter of 2A StopGo recoding; control for the full effect not named in the record; active = well fitted falling curve with a large enough effect; inconclusive = small, poorly fitted or top-dose-only effect; inactive = no such curve, though single readings can be large or run the other way; tested in HEK293T cells; also: nearly all actives have a fitted effect of over 45% in size; luciferase light after 4 h
# Cruzain noTriton = blocks cruzain activity in detergent-free assay; purified cruzain, Z-FR-AMC fluorescence, no detergent; Potency, µM, without a hit: max response, negative = inhibition, usual class: inhibitors; 200,000 tested, 2.3% active; AID 1476;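 also: plate controls were enzyme without inhibitor for no effect and buffer without enzyme for full effect; nearly all actives have a fitted effect of over 40% in size; top concentration of the series not given in the record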
# Target sequence (P25779 123-467 limits assumed): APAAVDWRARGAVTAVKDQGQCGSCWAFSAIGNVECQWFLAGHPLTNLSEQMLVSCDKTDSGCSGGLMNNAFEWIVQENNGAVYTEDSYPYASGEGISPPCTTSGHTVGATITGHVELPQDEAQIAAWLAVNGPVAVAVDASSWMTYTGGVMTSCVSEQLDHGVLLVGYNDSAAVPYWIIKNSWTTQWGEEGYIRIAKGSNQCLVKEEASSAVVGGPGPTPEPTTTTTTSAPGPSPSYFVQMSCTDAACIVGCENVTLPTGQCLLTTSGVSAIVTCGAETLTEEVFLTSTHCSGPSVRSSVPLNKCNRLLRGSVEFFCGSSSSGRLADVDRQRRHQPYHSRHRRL
#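 Purified cruzain at 1.5 nM, pre-incubated 15 min with compound at room temperature in 100 mM sodium acetate pH 5.5, 5 mM DTT, 0.00005% Triton X-100. Reaction started with 2 uM Z-FR-AMC; AMC fluorescence increase over 60 s gives rate.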
# Cruzain Triton = cruzain (T. cruzi) inhibition with detergent; Potency, µM, for the others: max response, negative = inhibition, actives largely listed as inhibitors; AID 1478; 200,000 tested, 0.43% active; purified cruzain, Z-FR-AMC fluorescence, 0.01% Triton; P25779;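 also: plate controls were neutral wells for no effect and buffer without enzyme for full effect; nearly all actives have a fitted effect of over 40% in size; top concentration of the series not given in the record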
#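 Cysteine protease activity tested under reducing, mildly acidic conditions (100 mM sodium acetate pH 5.5, 5 mM DTT) plus 0.01% Triton X-100. Cruzain 1.5 nM; substrate Z-FR-AMC 2 uM; 15 min compound preincubation at room temperature.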
# Active calls of the source: *; u = inconclusive; & = joins results of further samples; [ ] = remark or other dose. Unless noted, calls follow the shape of the dose curve; as a rule, active = well fitted curve in the direction sought with a large enough effect; inconclusive = small, poorly fitted or top-dose-only effect, or another doubt; inactive = no such curve, though single readings can be large; an effect the other way counts as inactive or inconclusive. Unless noted, % is scaled to controls: 0 for no effect and ±100 for the full control effect; potency is read from the fitted curve at half-maximal effect. Some of the compounds tested (hit frequency here may not be typical).
# The first two entries, to show the layout:
SMILES,2A StopGo,Cruzain noTriton,Cruzain Triton
COc1ccccc1CN1CC2(CCN(S(=O)(=O)c3ccccc3)CC2)C1,5%,-24%,2.6%
O=C1C(Cl)=C(Cl)C(=O)C(Cl)=C1Cl,-28%,-26%&-14%,-18%&-1.3%

# This part in full, from the start:
SMILES,2A StopGo,Cruzain noTriton,Cruzain Triton
COc1ccccc1CN1CC2(CCN(S(=O)(=O)c3ccccc3)CC2)C1,5%,-24%,2.6%
O=C1C(Cl)=C(Cl)C(=O)C(Cl)=C1Cl,-28%,-26%&-14%,-18%&-1.3%
CCC(C(=O)O)c1ccccc1 (stereo not given),-1%,3%,-2.4%
OCC(O)C(O)C(O)CO (stereo not given),-3%,0%&2%,3.0%&6.4%
CCCCCCCC(=O)OC[C@H](CO)OC(=O)CCCCCCC,4%[6.7 µM],8%,-3.0%
COc1ccc2[nH]cc(CCNc3ccnc(-c4ccc(N(C)C)cc4)n3)c2c1,u,u,-7.0%
COc1ccc(NC(=O)N2CC[C@@]3(CCCN(C(=O)c4ccncc4)C3)C2)cc1,-8%,0%,3.6%
FC(F)(F)c1ccccc1-c1nc(Nc2ccncc2)c2ccccc2n1,-21%,16%,-24%
NCCCCCCNS(=O)(=O)c1cccc2ccccc12,40%[activator],-23%,2.0%
CC1(C)CC2C1CC[C@]1(C)CCC3C(C(=O)O)CC(=O)O[C@]32C1 (stereo not given in full),4%,21%,-7.4%
O=c1c(-c2cccs2)nc2cnc(N3CCOCC3)nc2n1-c1ccccc1,-17%,14%,-0.3%
COCCn1c(=O)c(-c2cc(F)cc(F)c2)nc2cnc(N3CCOCC3)nc21,-10%,12%,1.1%
O=c1c(-c2cc(O)c(O)c(O)c2)coc2cc(O)c(O)c(O)c12,-13%,-10%,-7.9%
O=C(c1ccco1)N1CCC[C@@]2(CCN(c3ccccn3)C2)C1,-4%,-3%,-0.6%
Cn1cc(-c2nc3cnc(N4CCOCC4)nc3n(C3CC3)c2=O)c2ccccc21,6%,-1%,-3.0%
CC(C)C1COc2cc3oc(=O)ccc3cc2O1 (stereo not given),23%,10%,2.1%
O=c1cnc2cnc(Oc3ccccc3)nc2n1CCc1ccccc1,-8%,u,-8.4%
CCNc1ncc2nc(-c3ccc(Cl)cc3)c(=O)n(Cc3cccs3)c2n1,8%,5%,-0.4%
CN(Cc1ccco1)c1ccnc(-c2cccc(NS(C)(=O)=O)c2)n1,36%[activator],-22%,u
Cc1noc(C)c1C(=O)N1CCC2(CCCN(c3ccccc3)C2)CC1,-8%,u,-2.1%
COc1ccccc1N1CCN(CCN2C(=O)c3ccccc3C(C)(C)C2=O)CC1,-27%&-28%,7%,-0.5%
CN1CCC2=C[C@@H](O)[C@@H]3OC(=O)c4cc5c(cc4C3C21)OCO5 (stereo not given in full),-18%,9%,1.8%
COCCn1c(=O)cnc2cnc(Oc3ccccc3)nc21,-12%,1%,-1.9%
CC1CCC(C(C)(C)O)CC2=C1CCC2C (stereo not given),24%,-1%,2.7%

# One compound at a time, as listed above.
# `CC(C)C1COc2cc3oc(=O)ccc3cc2O1` (stereo not given) is entered as 2A StopGo = 23%; Cruzain noTriton = 10%; Cruzain Triton = 2.1%
# `O=c1c(-c2cc(O)c(O)c(O)c2)coc2cc(O)c(O)c(O)c12` is entered as 2A StopGo = -13%; Cruzain noTriton = -10%; Cruzain Triton = -7.9%
# `CC1CCC(C(C)(C)O)CC2=C1CCC2C` (stereo not given) is entered as 2A StopGo = 24%; Cruzain noTriton = -1%; Cruzain Triton = 2.7%

# (more compounds)
SMILES,2A StopGo,Cruzain noTriton,Cruzain Triton
O=c1c(-c2ccccc2)coc2cc(O)cc(O)c12,22%,9%,5.4%
CN(C)C(=O)c1ccc(-c2cncnc2NCCc2cnc[nH]2)cc1,-8%,-5%,1.7%
CS(=O)(=O)N1CCC2(CC1)CN(C(=O)Nc1cccc(C#N)c1)C2,-14%,3%,-1.4%
CC(=O)N1CCC[C@@]2(CCN(Cc3nccs3)C2)C1,-8%,0%,2.6%
C=C1C[C@@]23C[C@@]1(O)CCC2[C@@]12C=CC(O)[C@](C)(C(=O)O1)C2C3C(=O)O (stereo not given in full),4%,-2%,1.9%
O=c1c(-c2ccccc2)nc2cncnc2n1-c1ccccc1,-4%,-13%,-4.7%
Cn1c2c(c3ccccc31)CCNCC2,-8%,4%,-0.6%
CC(=O)O[C@]1(C)CC[C@]23CC1C(C)(C)C2CC[C@@H]3C (stereo not given in full),-5%,-1%,5.9%
CN(C)c1ncc2nc(-c3cccc(C#N)c3)c(=O)n(CCC#N)c2n1,-4%,8%,2.4%
COC1=CC23CCCN2CCc2cc4c(cc2C3C1O)OCO4 (stereo not given),1%,1%,-2.6%
Cc1nc2cnc(N3CCNCC3)nc2n(CCc2ccccc2)c1=O,-9%,-14%,-4.2%
CC1CC[C@@]2(OC1)OC1CC3C4CC[C@H]5CC(O)CC[C@@]5(C)C4CC[C@]3(C)C1C2C (stereo not given in full),5%,-6%,-0.1%
Cc1cnc(CNc2ccnc(-c3cccc(NS(C)(=O)=O)c3)n2)cn1,-2%,7%,0.5%
N[C@H](CCC(=O)N[C@H](CSN=O)C(=O)NCC(=O)O)C(=O)O,-8%,4%,2.6%
O=C(c1cnccn1)N1CCC2(CC1)CN(Cc1cc(C(F)(F)F)cc(C(F)(F)F)c1)C2,0%,-9%,5.2%
COC(=O)N1CCC2(CC1)CN(C(c1ccccc1)c1ccccc1)C2,-11%,-4%,3.0%
COc1cccc(-c2ccc3ncnc(N4CCNCC4)c3c2)c1,10%,-9%,3.8%
Cc1noc(C)c1C(=O)N1CCC2(CCN(Cc3ccncc3)CC2)CC1,0%,-2%,6.4%
Cc1ccc(-c2nn(CC(C)(C)C)c3ncnc(N)c23)cc1,-20%,0%,1.4%
COCCn1c(=O)c(-c2ccc(Cl)cc2)nc2cnc(OCc3ccccc3)nc21,-11%,6%,1.8%
COc1ccc(Oc2ncc3ncc(=O)n(C)c3n2)cc1,24%,-4%,0.2%
COC1(CS(=O)c2ccccc2)CCN(CCc2c[nH]c3ccc(F)cc23)CC1 (stereo not given),-16%,8%,-2.3%
O=C(c1cc(C(F)(F)F)cc(C(F)(F)F)c1)N1CCC2(CCCN(Cc3ccncc3)C2)CC1,-14%,-10%,-1.3%
CC(=O)OC1CC[C@@]2(C)C3=CC(=O)[C@]4(C)C(CC5OC6(OCC(C)CC6Br)C(C)C54)C3CC[C@H]2C1 (stereo not given in full),3%,0%,5.0%

# Looked up above.
# Value for `COCCn1c(=O)c(-c2ccc(Cl)cc2)nc2cnc(OCc3ccccc3)nc21` in 2A StopGo: -11%
# Value for `O=C(c1cnccn1)N1CCC2(CC1)CN(Cc1cc(C(F)(F)F)cc(C(F)(F)F)c1)C2` in 2A StopGo: 0%

# Additional compounds:
SMILES,2A StopGo,Cruzain noTriton,Cruzain Triton
[N-]=[N+]=NCC1OC(n2cnc3c(=O)[nH]c(N)nc32)C(O)C1O (stereo not given),7%,9%,5.1%
C[C@](O)(C(=O)Nc1ccc(S(=O)(=O)c2ccccc2)cc1)C(F)(F)F,3%,4%,-1.7%
O=C(c1ccco1)N1CCC2(CCCN(Cc3ccncc3)C2)CC1,-6%,-4%,-2.8%
COc1ccc(-n2c(=O)c(-c3cccc(Cl)c3)nc3cncnc32)cc1,-5%,-27%,6.8%
O=c1c(-c2cccs2)nc2cnc(Oc3cccc(Cl)c3)nc2n1C[C@H]1CCCO1,-26%,7%,2.8%
COc1ccccc1-c1ccc2ncnc(N3CCNCC3)c2c1,-6%,0%,1.7%
CS(=O)(=O)Nc1cccc(-c2nc(NCc3cccnc3)c3ccccc3n2)c1,-1%,4%,-2.3%
O=C1NS(=O)(=O)c2ccccc21,-10%,-2%,-1.3%
COCCn1c(=O)c(-c2cccs2)nc2cnc(OCc3ccccc3)nc21,-10%,5%,4.0%
Cc1noc(C)c1-c1ccc2ncnc(NCCN3CCOCC3)c2c1,15%,2%,1.4%
c1ccc(-c2ccc(N3CC[C@@]4(CCCNC4)C3)cc2)cc1,u,-29%,-0.2%
O=c1c(-c2ccc(Cl)cc2)nc2cncnc2n1Cc1ccc(F)cc1,-4%,-5%,2.3%
CN(C)C(=O)c1ccc(-c2nccc(N(C)Cc3ccco3)n2)cc1,8%,4%,3.4%
C[C@@]12CC(=O)C3=C(CCCC3=O)N1CCc1ccccc12,-11%,10%,0.8%
COCCn1c(=O)c(-c2ccccc2)nc2cncnc21,-13%,-5%,-3.8%
CC1=C(O)C(=O)[C@H]2O[C@@H]2C1=O,11%,-5%,-8.4%
CCNc1ncc2nc(CCc3ccccc3)c(=O)n(CCC#N)c2n1,-4%,17%,u
O=c1c(-c2ccc(Cl)cc2)nc2cnc(N3CCNCC3)nc2n1-c1ccccc1,-21%,25%,-21%
O=C(c1cccc(F)c1)N1CCC2(CCCN(Cc3ccccc3)C2)CC1,7%,1%,4.1%
C[C@@H]1CCC2[C@@H](C)[C@@H](O)O[C@@H]3O[C@@]4(C)CC[C@@H]1[C@@]23OO4 (stereo not given in full),-10%,-3%,-0.8%
O=C(O)C(Oc1ccc2ccc(=O)oc2c1)c1ccccc1 (stereo not given),-1%,-2%,1.4%
O=c1c(-c2cccs2)nc2cnc(N3CCNCC3)nc2n1-c1ccccc1,-12%,-10%,-3.5%
CC1CC[C@@]2(C(=O)O)CCC3(C)C(=CCC4[C@]5(C)CC(O)C(O)[C@](C)(CO)C5C(O)C[C@@]43C)C2C1C (stereo not given in full),14%,u,3.7%
CN1CCN(c2ncc3nc(CCc4ccccc4)c(=O)n(C4CC4)c3n2)CC1,-10%,0%,-2.9%
O=c1c(-c2cccc(F)c2)nc2cncnc2n1Cc1ccc(F)cc1,-7%,-21%,-2.9%
c1ccc2c(N3CCOCC3)nc(-c3ccoc3)nc2c1,-16%,-11%,-1.0%
CS(=O)(=O)N1CCC2(CC1)CN(Cc1nccs1)C2,1%,-9%,3.0%
CCCCCCCCCCCCC/C=C/[C@@H](O)[C@H](CO)NC(=O)CCCCCCC,-5%[6.7 µM],17%,-5.3%
CC1(O)/C=C\C=C(\CO)C2CC(C)(C)C2(O)CC1 (stereo not given),-10%,-4%,0.9%
CC(=O)OC1CC2C(C)(C)CCC(=O)[C@@]2(C)C2CC[C@@]3(C)C(c4ccoc4)OC(=O)C4OC43[C@]12C (stereo not given in full),-4%,-6%,3.6%
Cc1cnc(CNc2ncncc2-c2c(C)noc2C)cn1,-7%,7%,4.1%
COc1ccc(-n2c(=O)c(-c3cccs3)nc3cnc(Nc4cccc(OC)c4)nc32)cc1,-9%,-16%,-6.5%
O=C(c1csnn1)N1CCC2(CC1)CN(Cc1ccncc1)C2,-2%,-5%,3.2%
O=C(Oc1ccccc1)N1CCC[C@@]2(CCN(c3ccccn3)C2)C1,-12%,-2%,-1.7%
O=C(c1cnccn1)N1CCC2(CCCN(Cc3nccs3)C2)CC1,-5%,0%,7.7%
CC12CCC3C(CC3(C)C)C(C)(CCC1=O)O2 (stereo not given),-4%,-3%,-1.1%

# Part of the list above, showing only Cruzain noTriton.
canonical_smiles | Cruzain noTriton
C[C@@]12CC(=O)C3=C(CCCC3=O)N1CCc1ccccc12 | 10%
COCCn1c(=O)c(-c2cccs2)nc2cnc(OCc3ccccc3)nc21 | 5%
